Assay outcomes: PubChem, National Center for Advancing Translational Sciences (NCATS)
PINK1 modulator = PINK1 expression modulation. hit rate 0.2% among 410,000. AID 624263. Potency, µM (doses to about 76.6 µM), inactives show at the top dose activation (PINK1 increase), usual class: activators. PINK1 immunofluorescence, high-content cytometry, 24 h; active = well fitted activation curve with a large enough effect; inconclusive = small, poorly fitted or top-dose-only effect; inactive = flat fitted curve, though single readings scatter; cell line not stated here;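 also: potency is read from the fitted curve at half-maximal effect; % of control where 0% means no effect; nearly all actives have a fitted effect of over 65% in size; a mitochondrial uncoupler was the plate control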
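Cells are seeded, rested 12 hours, then given compound at five concentrations or DMSO for 24 hours. After fixation, blocking and antibody staining, PINK1 amount and mitochondrial localization are scored; CCCP serves as control.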
Six1-Eya2 inh = Six1/Eya2 interaction inhibition | AlphaScreen GST-Six1/His-Eya2 binding, biochemical; hits give low values; control for the full effect not named in the record | activity change, % (concentration not given with the values) | hit rate 0.56% among 360,000 | Q15475+O00167 | AID 651725; in the data active = activity change below about -65%; inconclusive = about -30% to -65%; inactive = above about -30%; also: % is scaled to controls: 0 for no effect and ±100 for the full control effect
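AlphaScreen luminescence read after one hour at 37 °C in darkness. Pin-transferred compounds met GST-Six1 and His-Eya2 protein (5X stock 250 nM/500 nM) plus glutathione donor and Ni-chelate acceptor beads (5X, 50 ug/mL).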
CtBP-E1A inh = blocks the CtBP interaction with E1A; AID 651724; hit rate 0.49% among 340,000; AlphaScreen GST-E1A/His-CtBP binding, 1536-well; hits give low values; control for the full effect not named in the record; activity change, % (no concentration beside the values); in the data active means activity change below about -65%; inconclusive means about -30% to -65%; inactive means above about -30%; also: % is scaled to controls: 0 for no effect and ±100 for the full control effect; compound concentration not given in the record
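In 5 uL wells, 23 nL compound meets equimolar GST-E1A and His-CtBP (5X stock 125 nM each) for 2 h, 37 °C. Beads (5X, 50 ug/mL) then 1 h, 37 °C, dark.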
D2 agonist = human D2 receptor agonism in beta-arrestin assay | AID 624465 | hit rate 0.084% among 360,000 | DiscoveRx PathHunter D2 beta-arrestin, luminescence, 90 min; 100% = 57 uM dopamine signal | P14416 | activation, % (no concentration beside the values); in the data active = activation above about 40%; inconclusive = about 15% to 40%; inactive = below about 15%; also: compound concentration not given in the record; the text of the record calls up to 30% inactive
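Agonist mode: compounds alone added to overnight-plated D2 PathHunter cells for 90 min at 37 C, with 57 uM final dopamine (EC100) defining full response. Beta-arrestin recruitment detected by chemiluminescent reagent, read after 1 h at ambient temperature.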
TRPML1 blocker = human mucolipin-1 channel inhibition. hit rate 0.02% among 390,000. TRPML1-inducible cells, Ca2+ dye fluorescence, FDSS; hits give low values; inhibition of EC80 agonist-evoked calcium signal. AID 624415. activity change, negative = inhibition, % (concentration not given with the values); in the data active means activity change below about -50%; inconclusive means about -30% to -50%; inactive means above about -30%;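 also: stimulus is agonist 54-4 at its EC80 concentration; % is scaled to controls: 0 for no effect and ±100 for the full control effect; compound concentration not given in the record; the text of the record puts the active cut at -80%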
Target sequence (Q9GZU1 whole entry, looked up): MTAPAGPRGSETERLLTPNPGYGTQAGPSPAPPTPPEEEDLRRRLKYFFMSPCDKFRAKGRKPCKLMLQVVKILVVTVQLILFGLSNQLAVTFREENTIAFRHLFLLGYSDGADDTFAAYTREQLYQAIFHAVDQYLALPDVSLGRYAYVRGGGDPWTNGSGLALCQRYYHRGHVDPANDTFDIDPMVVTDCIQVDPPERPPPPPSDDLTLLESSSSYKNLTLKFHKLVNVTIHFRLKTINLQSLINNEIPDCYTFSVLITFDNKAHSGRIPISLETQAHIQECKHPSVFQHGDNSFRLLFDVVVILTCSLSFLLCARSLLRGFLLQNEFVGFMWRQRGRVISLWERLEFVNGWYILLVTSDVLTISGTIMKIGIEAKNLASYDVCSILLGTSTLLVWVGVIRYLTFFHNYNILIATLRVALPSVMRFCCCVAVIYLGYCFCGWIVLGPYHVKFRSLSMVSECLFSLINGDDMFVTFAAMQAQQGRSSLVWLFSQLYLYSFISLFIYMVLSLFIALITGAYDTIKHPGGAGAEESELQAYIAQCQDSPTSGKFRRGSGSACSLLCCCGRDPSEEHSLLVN
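TRPML1-DL cells, Tet-induced overnight (~16 h, 37 °C) at 1,500 cells/well, were loaded with Ca8 no-wash dye plus quencher for 45-90 min at room temperature. Compounds were pinned during FDSS kinetic reading; agonist 54-4 at EC80 (4 uM final) then added.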
TRPML1 ag = human mucolipin-1 channel agonism; AID 624414; Q9GZU1; TRPML1-expressing cells, Ca2+ dye fluorescence, FDSS; host cell line not named in the record; reference of the full effect not given here; activation, % (test concentration not listed); hit rate 0.12% among 410,000; in the data active = activation above about 50%; inconclusive = about 30% to 50%; inactive = below about 30%; also: 0% is about no effect; the text of the record puts the active cut at 80%
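Kinetic FDSS Ca2+ read in Tet-induced TRPML1-DL cells (ABD Ca8 dye plus quencher, 45-90 min RT loading): baseline, then compound, then 110 s agonist window; EC80 agonist 54-4 at 4uM final added afterwards for a 110 s antagonist window.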
* marks the source's active call; other numbers are inactive results; nt = no result given.

Start of the listing, in advance (4 entries):
Letter code – A = PINK1 modulator; B = Six1-Eya2 inh; C = CtBP-E1A inh; D = D2 agonist; E = TRPML1 blocker; F = TRPML1 ag
> Cc1nnc(SCC(=O)N2CCCCC2)n1CC1CCCO1 (stereo not drawn)
  A: -0.1%	B: 9.0	C: 3.4	D: -1.5	E: 2.2	F: -0.1

> CN1CCc2c(sc(NC(=O)c3ccc(S(=O)(=O)N4CCCC4)cc3)c2C(N)=O)C1
  A: 7.2%	B: -4.4	C: -7.7	D: -4.6	E: 34.4	F: 1.8

> CC(=O)c1ccc(NC(=S)Nc2cccc3cnccc23)cc1
  A: 0.9%	B: -3.6	C: -29.5	D: 9.9	E: -7.1	F: 0.2

> CCOc1ccc(C(=O)NCCN2CCOCC2)cc1
  A: 1.3%	B: 9.1	C: 10.1	D: -1.7	E: 4.9	F: -0.2

This part in full, from the first entry:
Letter code – A = PINK1 modulator; B = Six1-Eya2 inh; C = CtBP-E1A inh; D = D2 agonist; E = TRPML1 blocker; F = TRPML1 ag
> Cc1nnc(SCC(=O)N2CCCCC2)n1CC1CCCO1 (stereo not drawn)
  A: -0.1%	B: 9.0	C: 3.4	D: -1.5	E: 2.2	F: -0.1

> CN1CCc2c(sc(NC(=O)c3ccc(S(=O)(=O)N4CCCC4)cc3)c2C(N)=O)C1
  A: 7.2%	B: -4.4	C: -7.7	D: -4.6	E: 34.4	F: 1.8

> CC(=O)c1ccc(NC(=S)Nc2cccc3cnccc23)cc1
  A: 0.9%	B: -3.6	C: -29.5	D: 9.9	E: -7.1	F: 0.2

> CCOc1ccc(C(=O)NCCN2CCOCC2)cc1
  A: 1.3%	B: 9.1	C: 10.1	D: -1.7	E: 4.9	F: -0.2

> CCOC(=O)c1c(NC(=O)CCl)sc(C(=O)N(CC)CC)c1C
  A: -0.3%	B: -6.7	C: 9.9	D: -0.9	E: 12.3	F: 0.5

> CC(=O)NC1=NC(=O)C(C)S1 (stereo not drawn)
  A: 2.9%	B: 15.4	C: 10.0	D: 0.3	E: 3.3	F: -0.6

> C=CC(=O)NCC1OCCc2ccccc21 (stereo not drawn)
  A: 0.7%	B: 4.7	C: nt	D: 0.8	E: -7.4	F: -0.2

> CCCCCc1ccc(-c2ccc(Br)cc2)nc1
  A: 1.8%	B: nt	C: nt	D: nt	E: 35.9	F: -0.4

> O=C(CNc1cccc(S(=O)(=O)N2CCCC2)c1)Nc1cccc(F)c1
  A: 0.7%	B: 0.2	C: -2.9	D: -3.4	E: -11.1	F: 0.1

> Cc1cccc(C(=O)NNC(=O)CSc2nnc(C3CC3)n2C)c1
  A: 2.7%	B: -6.5	C: -3.4	D: 3.1	E: -1.7	F: 0.6

An excerpt of these results, with values under each structure:
Under each structure – PINK1 modulator	Six1-Eya2 inh	CtBP-E1A inh	D2 agonist	TRPML1 blocker	TRPML1 ag
- CC(=O)NC1=NC(=O)C(C)S1 (stereo not drawn)
 : 2.9%	15.4	10.0	0.3	3.3	-0.6
- CCCCCc1ccc(-c2ccc(Br)cc2)nc1
 : 1.8%	nt	nt	nt	35.9	-0.4
- O=C(CNc1cccc(S(=O)(=O)N2CCCC2)c1)Nc1cccc(F)c1
 : 0.7%	0.2	-2.9	-3.4	-11.1	0.1
- CCOc1ccc(C(=O)NCCN2CCOCC2)cc1
 : 1.3%	9.1	10.1	-1.7	4.9	-0.2
- C=CC(=O)NCC1OCCc2ccccc21 (stereo not drawn)
 : 0.7%	4.7	nt	0.8	-7.4	-0.2
